Screening results (PubChem)
Sfp PPTase inh: inhibitors of Bacillus subtilis Sfp phosphopantetheinyl transferase | Q9F4F7 | Biochemical Sfp PPTase activity, qHTS | Potency, µM, for the others: max response, negative = inhibition, hits mostly inhibitors | actives 3.5% (n = 310,000) | AID 1490; active means well fitted inhibition curve with a large enough effect; inconclusive means small, poorly fitted or top-dose-only effect, or another doubt; inactive means no such curve, though single readings can be large or run the other way;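 further: the enzyme is Sfp with the accession as filed and its product quenches rhodamine fluorescence; potency means the concentration at half of the fitted maximal effect; 0% = enzyme reaction without inhibitor and -100% = no enzyme wells; top concentration of the series not given in the record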
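Buffer: 50 mM Hepes-Na pH 7.6, 10 mM MgCl2, 0.01% Nonidet P-40, 0.01% BSA. Enzyme 15 nM, pre-exposed to compound 15 min; substrates then added and fluorescence change tracked over 30 min.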
D2 potentiator: human D2 receptor positive allosteric modulation; potentiation, % (test concentration not listed); P14416; actives 0.23% (n = 360,000); AID 624464; DiscoveRx D2 beta-arrestin cells, luminescence, 90 min; 100% = 57 uM dopamine signal; active = potentiation of 50% or more; inconclusive = 30% to 50%; inactive = 30% or less;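 further: compound concentration not given in the record; tested on top of an EC20 dose of dopamine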
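PathHunter beta-arrestin assay in DiscoveRx D2 cells. Compounds were added with an EC20 of dopamine (50 nM final) for 90 min at 37 deg C. Luminescence was read 1 h after detection reagent, with 57 uM dopamine as the EC100 control.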
D2 agonist: activates the human D2 dopamine receptor. activation, % (no concentration beside the values). DiscoveRx PathHunter D2 beta-arrestin, luminescence, 90 min; 100% = 57 uM dopamine signal. actives 0.084% (n = 360,000). AID 624465; in the data active = activation above about 40%; inconclusive = about 15% to 40%; inactive = below about 15%; further: compound concentration not given in the record; the text of the record calls up to 30% inactive
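Agonist mode: compounds alone added to overnight-plated D2 PathHunter cells for 90 min at 37 C, with 57 uM final dopamine (EC100) defining full response. Beta-arrestin recruitment detected by chemiluminescent reagent, read after 1 h at ambient temperature.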
CtBP-E1A inh: CtBP/E1A binding inhibition; AlphaScreen GST-E1A/His-CtBP binding, 1536-well; active compounds read low; control for the full effect not named in the record; activity change, % (concentration not given with the values); actives 0.49% (n = 340,000); in the data active means activity change below about -65%; inconclusive means about -30% to -65%; inactive means above about -30%; further: on the % scale 0 is the no-effect control and ±100 the full control effect
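Protein mix (5X: 125 nM each GST-E1A, His-CtBP) was incubated with pinned compound 2 h at 37 deg C in dark, in 50 mM Tris pH 8.0 buffer with 300 mM NaCl. Glutathione donor and nickel acceptor beads followed; AlphaScreen signal read after 1 h.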
PINK1 modulator: PINK1 expression modulation. PINK1 immunofluorescence, high-content cytometry, 24 h. Potency, µM (top dose mostly 76.6 µM), for the others: at the highest dose activation (PINK1 increase), most hits filed as activators. actives 0.2% (n = 410,000). AID 624263; active = well fitted activation curve with a large enough effect; inconclusive = small, poorly fitted or top-dose-only effect; inactive = flat fitted curve, though single readings scatter; cell line not stated here;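 further: potency means the concentration at half of the fitted maximal effect; % of control where 0% means no effect; nearly all actives have a fitted effect of over 65% in size; a mitochondrial uncoupler was the plate control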
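Compound titrations (5 concentrations, 24 h) on a stable cell line; DMSO and CCCP controls. Endpoint: fixed-cell PINK1 immunofluorescence with mitochondrial, cell and nuclear markers, scanned by microplate cytometer.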
TRPV1 potentiator: human TRPV1 potentiation. TRPV1-expressing cells, Fluo-8 calcium influx, capsaicin EC20 potentiation; host cell line not named in the record; control for the full effect not named in the record. actives 0.02% (n = 320,000). potentiation, % at 8.33 µM; active means potentiation above 80%; inconclusive means 30% to 80%; inactive means below 30%; further: 0% is about no effect
Target sequence (Q8NER1 whole entry, looked up): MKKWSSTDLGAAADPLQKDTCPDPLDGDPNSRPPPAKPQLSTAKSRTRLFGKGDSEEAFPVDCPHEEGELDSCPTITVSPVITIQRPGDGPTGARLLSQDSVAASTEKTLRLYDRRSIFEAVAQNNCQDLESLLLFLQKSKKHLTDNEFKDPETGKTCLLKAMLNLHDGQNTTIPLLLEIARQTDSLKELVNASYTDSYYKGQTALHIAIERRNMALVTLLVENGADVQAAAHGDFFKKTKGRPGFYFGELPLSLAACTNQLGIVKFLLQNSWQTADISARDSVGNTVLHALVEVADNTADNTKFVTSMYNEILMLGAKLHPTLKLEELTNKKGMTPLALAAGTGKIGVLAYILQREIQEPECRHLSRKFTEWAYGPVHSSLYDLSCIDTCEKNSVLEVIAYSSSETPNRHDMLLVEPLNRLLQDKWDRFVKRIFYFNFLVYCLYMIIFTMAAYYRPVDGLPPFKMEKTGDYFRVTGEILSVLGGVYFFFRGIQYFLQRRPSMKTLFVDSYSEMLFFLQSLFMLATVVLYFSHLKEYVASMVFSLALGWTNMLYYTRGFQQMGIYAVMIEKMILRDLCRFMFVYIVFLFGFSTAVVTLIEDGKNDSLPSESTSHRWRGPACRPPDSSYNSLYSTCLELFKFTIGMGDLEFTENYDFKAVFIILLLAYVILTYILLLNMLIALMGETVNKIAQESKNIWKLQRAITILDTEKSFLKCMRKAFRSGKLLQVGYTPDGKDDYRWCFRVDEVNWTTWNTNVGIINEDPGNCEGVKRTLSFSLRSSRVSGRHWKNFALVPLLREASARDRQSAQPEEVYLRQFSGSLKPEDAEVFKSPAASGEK
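Fluo-8 calcium influx in TRPV1-expressing cells, kinetic read (ex 480/em 520 nm). Compound added and read 3 min for agonist activity, followed by capsaicin at EC20 final and 2 min further read for enhancement.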
Six1-Eya2 blk: inhibitors of human Six1/Eya2 interaction | Q15475+O00167 | AlphaScreen GST-Six1/His-Eya2 binding, biochemical; active compounds read low; control for the full effect not named in the record | activity change, % (concentration not given with the values) | actives 0.56% (n = 360,000) | AID 651725; in the data active = activity change below about -65%; inconclusive = about -30% to -65%; inactive = above about -30%; further: on the % scale 0 is the no-effect control and ±100 the full control effect
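Compounds are tested against tagged Six1 and Eya2 proteins bridged by glutathione donor and nickel acceptor beads; after a one-hour incubation at 37 °C without light, AlphaScreen emission is recorded.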
* hit, by the source's call; ? = inconclusive; . = no result given; [ ] = another dose, or the depositor's remark.

SMILES | Sfp PPTase inh | D2 potentiator | D2 agonist | CtBP-E1A inh | PINK1 modulator | TRPV1 potentiator | Six1-Eya2 blk
Cc1ccc(-c2sc(-c3ccccc3)nc2CC(=O)Nc2ccccc2F)cc1 | 11% | -6 | -3.1 | 1 | -0.1% | 6 | -9
CC(=O)Nc1sc(C)c(C)c1C(=O)OC(C)C | 0% | 4 | -1.7 | 4 | 5.3% | -11 | 6
O=C(Cn1ncc2c(=O)oc3ccccc3c21)N(Cc1ccco1)C1CCCCC1 | 7% | -2 | -2.7 | -5 | 3.4% | 0 | -4
COc1ccc(CNC(=O)N[C@@H](CC(C)C)C(=O)O)cc1OC | 13% | -2 | -0.8 | 4 | 0.3% | -2 | -3
CN(N=C(c1ccccc1)c1ccccc1)c1ccccc1 | . | 0 | -0.9 | ? | 21% | . | -26
O=C(c1ccc2oc(Cc3ccc(Cl)cc3)nc2c1)N1CCCCC1CCO (stereo unspecified) | 7% | -1 | 6.5 | -5 | 4.7% | 11 | -6
Cc1nn(C)cc1C(C(=O)NC1CCCCC1)N(Cc1ccc(F)cc1)C(=O)c1cnccn1 (stereo unspecified) | 16% | 1 | -3.0 | 2 | 1.0% | 14 | -4
CCCOc1ccc(/C=C/C(=O)Nc2ccc([N+](=O)[O-])cc2)cc1 | 13% | -7 | 1.7 | -15 | ? | -8 | -12
COc1ccc(-c2[nH]ncc2CN2CCCO2)c(F)c1 | 25% | -11 | -2.1 | -8 | 0.3% | -3 | 1
CCN(C(=O)CSc1nccc(=O)[nH]1)c1cccc2ccccc12 | . | -4 | 2.1 | 4 | -1.8% | . | 3
COc1ccc(C)cc1NC(=O)c1ccc(S(=O)(=O)N2CCCCC2)cc1 | 9% | 4 | 8.9 | -4 | 2.0% | 16 | -4
Cc1csc2nc(CNC(=O)c3ccco3)cn12 | 9% | -14 | -2.9 | -2 | -1.4% | -10 | 2
Cc1ccc(-c2ccc(/C=C(\C#N)C(N)=S)n2C)cc1 | -4% | -16 | -7.8 | -22 | -1.6% | 12 | -21
Cc1noc(NS(=O)(=O)c2ccc(NC(=O)c3ccc(Cl)c(S(=O)(=O)N(C)c4ccccc4)c3)cc2)c1C | . | 5 | -2.8 | -9 | 1.1% | 15 | -11
S=C1CCC(c2ccc(Br)cc2)=NN1c1ccccc1 | -13% | -4 | -2.2 | -4 | 2.5% | 0 | -14
COC(=O)CSc1nnc(-c2ccc(NS(=O)(=O)c3ccccc3)cc2)o1 | 23% | 6 | 0.0 | 21 | 7.3% | -1 | 6
O=S(=O)(NCC1OCCc2ccccc21)c1ccccc1 (stereo unspecified) | 6% | 2 | -4.2 | -15 | -2.3% | -6 | -15
Cc1cccc(C)c1OCCNC(=O)OCc1ccccc1 | 10% | 8 | 0.0 | . | -2.0% | 2 | 13
CC(=O)NC(Cc1ccccc1)C(=O)OCC(=O)c1ccc(F)cc1 (stereo unspecified) | 3% | -9 | 1.7 | -2 | -0.9% | 4 | -2
COc1ccccc1C(C(C(=O)c1ccccc1)N1CCOCC1)N1CCOCC1 (stereo unspecified) | . | -2 | 2.0 | 2 | -0.6% | . | 0
CC(C)C[C@H](NC(=O)c1nc[nH]c1C(=O)NC1CCNCC1)C(=O)OC(C)(C)C | . | -10 | -2.4 | 1 | 0.6% | -5 | 0
Cc1cc(C(=O)NCCCN2CC(C)CC(C)C2)n(-c2ccccc2)n1 (stereo unspecified) | -6% | -4 | -7.2 | -3 | 1.3% | 30 | 8
Cc1ccc2nc(SCC(=O)c3ccccc3)nc(=O)n2c1 | . | -1 | 0.0 | 0 | 2.9% | -2 | 1
O=C(Nc1ccccc1N1CCOCC1)c1cc(Br)c(Br)s1 | 20% | -32 | -1.5 | 5 | 6.6% | 18 | 0

Single records, from the list above:
COc1ccc(C)cc1NC(=O)c1ccc(S(=O)(=O)N2CCCCC2)cc1 is listed as Sfp PPTase inh: 9%; D2 potentiator: 4; D2 agonist: 8.9; CtBP-E1A inh: -4; PINK1 modulator: 2.0%; TRPV1 potentiator: 16; Six1-Eya2 blk: -4
CC(=O)Nc1sc(C)c(C)c1C(=O)OC(C)C is listed as Sfp PPTase inh: 0%; D2 potentiator: 4; D2 agonist: -1.7; CtBP-E1A inh: 4; PINK1 modulator: 5.3%; TRPV1 potentiator: -11; Six1-Eya2 blk: 6
O=C(Cn1ncc2c(=O)oc3ccccc3c21)N(Cc1ccco1)C1CCCCC1 is listed as Sfp PPTase inh: 7%; D2 potentiator: -2; D2 agonist: -2.7; CtBP-E1A inh: -5; PINK1 modulator: 3.4%; TRPV1 potentiator: 0; Six1-Eya2 blk: -4

Further results.
SMILES | Sfp PPTase inh | D2 potentiator | D2 agonist | CtBP-E1A inh | PINK1 modulator | TRPV1 potentiator | Six1-Eya2 blk
COc1ccc(C(=O)NCc2ccc3c(c2)cc(C)n3C)cc1OC | 2% | -16 | -5.0 | . | -2.8% | 1 | -8
CCCn1cc(CN2CCCC(C(=O)c3cccc(OC(C)C)c3)C2)c(C)n1 (stereo unspecified) | 10% | -6 | -4.4 | -4 | -0.2% | -7 | 0
COc1cccc2c(=O)c3c(oc12)CCCC3 | . | -11 | -7.8 | 2 | 1.5% | . | -23
CNC(=O)[C@@H]1CCC(=O)N1 | . | -4 | -1.5 | -10 | -0.6% | -3 | -3
COCCNC(=O)C(c1cccc(OC)c1)N(Cc1cccs1)C(=O)Cn1nnc2ccccc21 (stereo unspecified) | 11% | -1 | -2.8 | -1 | -0.8% | -2 | 3
Cc1ccccc1COc1ccc2oc(C)c(C(=O)O)c2c1 | -3% | 4 | 2.3 | 4 | -1.0% | 11 | 3
COc1ccc(C(=O)Nc2ccc(S(=O)(=O)Nc3onc(C)c3C)cc2)c(OC)c1 | 16% | -4 | -4.4 | 0 | 1.0% | 1 | -9
O=C1c2ccccc2C(=O)N1CCc1csc(-c2cccc(F)c2)n1 | 0% | -6 | -2.3 | 16 | -1.6%[38.3 µM] | -3 | 21
CC/C(=N\O)C(C)(C)/[N+]([O-])=C/c1ccc(Br)cc1 | 6% | 0 | 1.4 | -6 | 0.8%[38.3 µM] | 6 | -1
CCOC(=O)Cn1nc(C)c([N+](=O)[O-])c1C | 6% | -23 | -0.1 | 7 | -0.3% | 20 | -2
OCC[C@@H]1C[C@H](O)[C@@H](O)[C@]2(Cc3ccccc3CO2)O1 | -1% | -10 | -3.8 | 5 | 2.0% | -14 | 6
CNC(=O)COc1cccc(C(=O)NCc2ccccc2)c1 | 25% | -7 | -7.1 | -21 | 0.2% | 15 | -3
CCn1cc2nc(SCC(=O)Nc3ccccc3F)n(Cc3ccccc3)c(=O)c2n1 | -6% | -2 | -2.1 | . | -0.2% | 8 | -8
O=C(NCCCN1CCOCC1)c1[nH]c(C(F)(F)F)nc1-c1ccccc1 | . | 9 | 7.9 | -1 | -0.3% | . | -9
Cc1ccc(CSCCNC(=O)c2ccc(C)cc2)cc1 | -3% | -9 | -2.3 | -5 | 0.4% | -9 | 7
CCc1ccccc1Oc1nc(NCc2ccccc2)nc2ccsc12 | . | 4 | -6.7 | 5 | ? | . | 4
Cc1ccc(OCC(=O)NN=C2C3CC4CC(C3)CC2C4)cc1 | . | -8 | -4.1 | 10 | 0.6% | -1 | 5
O=C(COC(=O)C1CC(=O)N(Cc2ccccc2)C1)Nc1ccccc1F (stereo unspecified) | 17% | -6 | -8.2 | 15 | 3.5% | -11 | 0
Cc1c(Cl)cnc(NC(=O)COC(=O)c2ccc(S(=O)(=O)NCc3ccco3)cc2)c1Cl | ? | -4 | 0.9 | -1 | 4.4% | 5 | -19
Cn1nnnc1SCC(=O)NCc1cc([N+](=O)[O-])ccc1O | 18% | -11 | -6.0 | -9 | -1.3% | 27 | -18
COCCNS(=O)(=O)c1cc(Br)ccc1OC | 1% | -2 | -2.7 | 4 | -2.8%[38.3 µM] | 5 | 2
CCNC(=O)CC1C(=O)N(c2ccc(F)cc2)C(=S)N1CCc1ccncc1 (stereo unspecified) | 2% | -2 | 0.8 | 1 | -0.5% | 13 | 4
O=C(Cc1coc2ccc3ccccc3c12)Nc1nccs1 | -6% | 3 | 0.2 | -7 | 0.2% | -2 | -1
CC1CCN(C(c2ccc(N(C)C)cc2)c2nnnn2C(C)(C)C)CC1 (stereo unspecified) | 20µM* | -8 | -1.7 | -27 | 3.2% | -16 | ?
COCCNC(=O)C1(C)CCCN(Cc2ccc(-n3ccnc3)cc2)C1 (stereo unspecified) | . | -2 | -4.7 | 5 | -0.7% | . | 4
O=C(O)c1ccccc1C1=Nc2ccc(O)cc2Oc2cc(O)ccc21 | 6% | 9 | -0.3 | 5 | -2.2% | -5 | -1
CCOc1ccc(-n2cc(C(=O)Nc3cccc(OC)c3)c3cc(OC)c(OC)cc3c2=O)cc1 | 11% | -1 | 0.7 | -13 | 2.8% | 3 | -10
CCCCCCCCCC(=O)NNC(=O)c1c(O)c2ccccc2n(CC)c1=O | 14% | 2 | 2.9 | 2 | ? | 2 | 2
CCN1C(=O)[C@H]2[C@@H](c3ccc(C)cc3)N[C@]3(CCCN(Cc4ccc(C(F)(F)F)cc4)C3=O)[C@H]2C1=O | . | -7 | 0.4 | -1 | 0.0% | . | 8
CCCOc1ccc(N2CC(C(=O)NC(C)C)CC2=O)cc1 (stereo unspecified) | 9% | -2 | -3.8 | 8 | 8.2% | -6 | 1
Cc1ccc2nc(-c3ccc(NC(=O)c4ccco4)cc3)[nH]c2c1 | -4% | 1 | 1.1 | 4 | ? | 15 | -2
O=C1Nc2cccnc2N(C(=O)CCl)c2ccccc21 | -5% | -2 | -2.6 | 4 | 6.2% | 0 | 1
COC(C(=O)Nc1cccc(F)c1)c1ccccc1 (stereo unspecified) | -3% | -6 | -2.9 | 9 | -0.5% | 16 | 9
Cc1cc(NCCC(C)C)n2nc(C)c(-c3ccccc3)c2n1 | 56µM* | -9 | -1.8 | 42 | 21%[38.3 µM] | -6 | 29
CC(=O)/C(N=Nc1cccc(C(F)(F)F)c1)=C(\C)O | -30% | -2 | 0.3 | 5 | 2.3% | -16 | -5
O=C(CSc1nc2nc3c(cc2c(=O)n1-c1ccccc1)CCCC3)Nc1ccccc1 | -27% | 3 | -2.8 | 4 | ? | 1 | 0
CCCCCN(C(=O)CCC(=O)OCc1cccc(C)c1)c1c(N)n(CCCC)c(=O)[nH]c1=O | . | -20 | -3.5 | 8 | 8.9% | -13 | -2
CCCCC(CC)CNC(=O)C(=O)c1ccccc1NC(C)=O (stereo unspecified) | 10% | -1 | -6.9 | -17 | 2.8% | 4 | -10
